From PubChem
StopGo FLuc = lowers the firefly signal of an FMDV 2A StopGo reporter | HEK cells with a luciferase reporter of 2A StopGo recoding | Potency, µM (titrated, usually from 57.5 µM), for the others: at the highest dose signal change, negative = less light | hit rate 0.23% among 120,000; active = well fitted falling curve with a large enough effect; inconclusive = small, poorly fitted or top-dose-only effect; inactive = no such curve, though single readings can be large or run the other way; further: nearly all actives have a fitted effect of over 60% in size; overnight with compound
2A Renilla = lowers the Renilla signal of an FMDV 2A StopGo reporter; HEK cells with a luciferase reporter of 2A StopGo recoding; hit rate 0.32% among 120,000; Potency, µM (top dose mostly 57.5 µM), for inactives: at the top dose signal change, negative = less light; active means well fitted falling curve with a large enough effect; inconclusive means small, poorly fitted or top-dose-only effect; inactive means no such curve, though single readings can be large or run the other way; further: nearly all actives have a fitted effect of over 55% in size; overnight with compound
* marks the source's active call; other numbers are inactive results; ? = inconclusive; [ ] = remark or other dose. On the % scale 0 is the no-effect control and ±100 the full control effect; potency means the concentration at half of the fitted maximal effect.

SMILES	StopGo FLuc	2A Renilla
CC1(C)CC(NC(=O)Cn2nc(-c3ccc(Cl)cc3)c3ccccc3c2=O)CC(C)(C)N1	-11%	-21%
O=C(NCc1ccc(OCC(F)(F)F)cc1)c1ccc(S(=O)(=O)N2CCOCC2)cc1	10%	11%
COc1ccc(-c2nnc(SCC(=O)Nc3cccc(Cl)c3C)nc2-c2ccc(OC)cc2)cc1	-7%	-2%
CN(C)c1ccc(-c2nn3c(CN4CCCCC4)nnc3s2)cc1	51%[activator]	-1%
CC(=O)c1c(C)n([O-])c2cc(C)ccc2[n+]1=O	5%	13%
CCOc1cc(-c2noc(-c3ccccc3)n2)ccc1OCC(=O)NC(C)(C)C	11%	0%
Cc1ccc(CNS(=O)(=O)c2ccc3[nH]c4c(c3c2)CCCCC4)cc1	?	-11%
Cc1ccc(S(=O)(=O)c2ccc(C(F)(F)F)cn2)cc1	3%	16%
O=C(NCC1(c2ccccc2)CCCC1)C(=O)Nc1cccc(Br)c1	-10%	-12%
Cc1c(C(=O)Nc2ccc(Br)cc2F)oc2ccc(S(=O)(=O)N3CCC4(CC3)OCCO4)cc12	-10%	-6%

Two records drawn at random from the list so far:
SMILES	StopGo FLuc	2A Renilla
Cc1ccc(S(=O)(=O)c2ccc(C(F)(F)F)cn2)cc1	3%	16%
CC(=O)c1c(C)n([O-])c2cc(C)ccc2[n+]1=O	5%	13%

New compounds follow
SMILES	StopGo FLuc	2A Renilla
COC(=O)C(O)(c1ccc(N(C)C(=O)Nc2ccc(Cl)cc2)cc1)C(F)(F)F (stereo not given)	0%	-6%
O=c1cc(CSc2n[nH]c(-c3ccccc3)n2)[nH]c2ccccc12	?	?
CC(C)(C)c1cc(CCC(N)=O)cc(C(C)(C)C)c1O	0%	14%
O=C(CSc1nc2ccccc2nc1N1CCCCC1)NC1CCCCC1	23%	38%[activator]
O=C(COc1ccc(Cl)cc1Cl)Nc1nc2n(n1)C(c1ccccc1)CC(=O)N2 (stereo not given)	-7%	-13%
Cc1nn2c(C)c(C(=O)N3CCN(c4ccc(Cl)cc4)CC3)cnc2c1-c1ccc(F)cc1	-19%	-12%
O=S(=O)(c1cccc(Br)c1)N1CCSCC1	-8%	-4%
CSCCC(NS(=O)(=O)c1ccc2c(c1)oc(=O)n2C)C(=O)Nc1ccc(Cl)cc1 (stereo not given)	8%	53%[activator]
Cn1c(=O)c2cc(C(=O)N3CCN(c4ccc(Cl)cc4)CC3)sc2c2ccccc21	-18%	-5%
O=C(CCOc1ccccc1)N(Cc1cccnc1)c1nc2ccc(F)cc2s1	-18%	-11%
Cc1cc(C(=O)O)cs1	0%	-5%
COc1cccc(NC(=O)Nc2c(N3CCCC3)c3ccccc3oc2=O)c1	13%	8%
CCCc1nnc2c(=O)n(CC(=O)Nc3ccccc3C(=O)OCC)c3ccccc3n12	7%	-15%
O=C(Nc1nnc(S(=O)(=O)N2CCCC2)s1)c1ccccc1Cl	48%[activator]	42%[activator]
CC(Sc1nc2ccccc2o1)C(=O)c1c[nH]c2ccccc12 (stereo not given)	5%	7%
O=C(OCc1nc2ccccc2o1)c1cccc(S(=O)(=O)NCc2ccccc2)c1	-6%	4%
CCNC(=O)NC(=O)CSc1nc(-c2ccco2)nc2ccccc12	32%[activator]	-21%
Cc1ccc2c(C)c(CCC(=O)N3CCCCCC3)c(=O)oc2c1	134%[activator]	56%[activator]
Cc1ccccc1-c1cc(C(=O)NC(C)C)c2ccccc2n1	-9%	3%
Cc1ccc(CN(C(=O)Cc2coc3ccc(C(C)C)cc23)C2CCS(=O)(=O)C2)cc1 (stereo not given)	-14%	-6%
O=C(Cn1ccc2cc(Cl)ccc21)Nc1ccc2c(c1)OCCO2	0%	42%[activator]
CCCN(Cc1cc(=O)[nH]c2c(C)cc(C)cc12)C(=O)Nc1cc(Cl)c(OC)cc1OC	32%[activator]	140%[activator]
Cc1ccc(N(C)C(=O)c2cc(-c3ccco3)nc3ccccc23)cc1	0%	15%
N[C@@H](CSCCCO)C(=O)O	-19%[27 µM]	-15%[23.8 µM]
Cc1cccc(N/N=C/c2ccc(F)c(F)c2)c1	14%	32%
Cc1cc(C)c(NC(=O)CSc2nc3ccccc3c3nc(CCn4cncc4C)nn23)c(C)c1	-14%	-20%
O=C(N/N=C/c1ccc(Br)s1)c1cccc(Cl)c1	116%[activator]	22%
CC(=O)Nc1ccc(S(=O)(=O)[C@H]2CS(=O)(=O)C[C@@H]2N2CCC3(CC2)OCCO3)cc1	1%	-4%
O=C(c1c[nH]c2ccc(S(=O)(=O)Nc3ccccc3F)cc2c1=O)N1CCCCCC1	-10%	-10%
CN(C)C(=O)Oc1ccc[n+](C)c1	-13%[11.5 µM]	-4%

5 consecutive records out of the list so far, for reference:
SMILES	StopGo FLuc	2A Renilla
O=C(Cn1ccc2cc(Cl)ccc21)Nc1ccc2c(c1)OCCO2	0%	42%[activator]
CCCN(Cc1cc(=O)[nH]c2c(C)cc(C)cc12)C(=O)Nc1cc(Cl)c(OC)cc1OC	32%[activator]	140%[activator]
Cc1ccc(N(C)C(=O)c2cc(-c3ccco3)nc3ccccc23)cc1	0%	15%
N[C@@H](CSCCCO)C(=O)O	-19%[27 µM]	-15%[23.8 µM]
Cc1cccc(N/N=C/c2ccc(F)c(F)c2)c1	14%	32%

(further entries)
SMILES	StopGo FLuc	2A Renilla
CC(NC(=O)c1ccccc1SCc1cccs1)c1cccs1 (stereo not given)	4%	161%[activator]
Cc1ccc(S(=O)(=O)c2nnn3c2nc(NC2CCCCCC2)c2sccc23)cc1C	-13%	65%[activator]
CCc1ccccc1NC(=O)CSc1nnc(-c2nonc2NC(C)=O)n1C	10%	-8%
Cc1nc(CC(=O)Nc2cccc(C)c2C)cs1	-8%	-18%
CCOC(=O)C1CCN(c2nc3c(S(=O)(=O)c4ccccc4)nnn3c3ccc(Cl)cc23)CC1	12%	1%
CC(C)COc1ccccc1C1CC(=O)Nc2cc3c(cc21)OCO3 (stereo not given)	?	13µM*
Cc1ccc(-n2ncc3c(NCC4CCCO4)ncnc32)cc1C (stereo not given)	0%	-14%
COc1ccc(-c2nc(CSCC(=O)N3CCN(Cc4ccc5c(c4)OCO5)CC3)c(C)o2)cc1	?	?
O=C(CCc1c[nH]c2ccccc12)OCC(=O)c1ccc(Cl)c([N+](=O)[O-])c1	7%	4%
CN(Cc1nc(-c2ccc(Cl)cc2)no1)S(=O)(=O)c1ccccc1	26%	-4%
Cc1cc(C)c2c(=O)cc(C(=O)Nc3ccc(S(=O)(=O)Nc4onc(C)c4C)cc3)oc2c1	8%	-5%
COC(=O)[C@H](CC(C)C)NC(=O)Cn1nc(N2CCN(c3ccccc3)CC2)ccc1=O	0%	-5%
COc1ccc(NC(=O)CSc2oc(-c3cccs3)nc2S(=O)(=O)c2ccc(Br)cc2)c(OC)c1	-12%	-2%
COc1ccccc1C(CNC(=O)COc1ccccc1C)N1CCCC1 (stereo not given)	-1%	0%
CC1CCN(S(=O)(=O)c2ccc(-c3nc(C#N)c(NCc4cccnc4)o3)cc2)CC1	5%	183%[activator]
CC(C)(C)OC(=O)N1CCC(c2c(C(=O)N3CCN(c4ccccn4)CC3)cnn2-c2ccccc2)CC1	-7%	2%
CC(C)c1ccc(/C=C2\Oc3cc(OS(C)(=O)=O)ccc3C2=O)cc1	?	?
Cn1ccnc1C(NC(=O)Cc1ccsc1)c1ccccc1F (stereo not given)	-6%	-11%
Cn1c(=O)c2c(ncn2CC(=O)Nc2nc(-c3ccc(C4CCCCC4)cc3)cs2)n(C)c1=O	66%[activator]	?
O=C(NC1CCC(C(F)(F)F)CC1)C1CCCO1 (stereo not given)	10%	0%
COc1ccc(CNS(=O)(=O)c2cc3c(cc2Cl)NC(=O)CO3)cc1	-10%	-7%
COc1ccc(OC)c(-n2nnc(-c3nc(-c4ccc5c(c4)OCO5)no3)c2C)c1	0%	5%
C=CCNCc1cccc(Br)c1	5%	5%
NS(=O)(=O)c1ccc(NC(=O)CN2CCCC2c2ccc(F)cc2)cc1 (stereo not given)	6%	-5%
Cc1ccc(S(=O)(=O)c2cn(CC(=O)Nc3cccc(Cl)c3)c3ccccc3c2=O)cc1	-5%	91%[activator]
Cc1cc(C)c(-c2csc(NC(=O)CN(C)CC(=O)Nc3cccc(C)c3C)n2)c(C)c1	?	?
COc1ccc(Nc2nc3ccc(C)cc3nc2-n2nc(C)cc2C)cc1Cl	-5%	7%
CCOC(=O)N1CCC(NC(=O)c2cnn(-c3cccc(F)c3)c2-n2cccc2)CC1	213%[activator]	250%[activator]
O=C(Nc1ccccc1-c1nc2ccccc2s1)c1cc(Cl)cc(Cl)c1	-8%	-3%
Cc1ccc(NC(=O)CSc2nc3nc(C)c(Cc4ccccc4)c(C)n3n2)cc1	-8%	-13%
CCC(=O)c1c(N)cc(C)oc1=O	18%	8%
Fc1ccccc1-c1csc(-c2ccccc2)n1	119%[activator]	-18%
CC(C)Cc1ccc(C(=O)C2CCNCC2)cc1	0%	-11%
CC1CCC(C(C)C)C(OC(=O)COC(=O)c2cc(=O)c3ccccc3o2)C1 (stereo not given)	0%	7%
Cc1ccc(C)c(NC(=O)Cn2c(=O)n(Cc3ccco3)c(=O)c3ccc(C(=O)NC4CCCC4)cc32)c1	15%	0%
CCc1ccc2oc(=O)cc(-c3oc4ccccc4c3NC(=O)C3CC3)c2c1	-7%	8%
Cc1ccccc1NC(=O)c1ccc(CNS(=O)(=O)c2ccc3c(c2)C(C)(C)C(=O)N3C)cc1	-18%	51%[activator]
COC(=O)c1ccc(NC(=O)Cn2c(-c3nonc3N)nc3ccccc32)cc1	10%	1%
CC(C)(C)C(=O)Nc1ccc2nc(SCCOc3ccccc3Cl)sc2c1	-4%	-4%
O=C(CSc1nc2ccccc2nc1N1CCCC1)NCc1ccccc1	-2%	33%[activator]
Cc1cn2c(=O)c(S(=O)(=O)Nc3ccc(OC(F)(F)F)cc3)c(C)nc2s1	-18%	-5%
CCOC(=O)c1cccc(NC(=O)CC2C(=O)N(c3ccccc3)C(=O)N2Cc2ccco2)c1 (stereo not given)	-24%	-15%
COc1ccccc1CNc1nc2ccccc2nc1NS(=O)(=O)c1cccc2nsnc12	-1%	76%[activator]
COC(=O)C(C)N1C(=O)S/C(=C/c2ccccc2)C1=O (stereo not given)	0%	-2%
CCOc1ccc2c(c1)c(=O)c(S(=O)(=O)c1ccc(C)cc1)cn2CC(=O)Nc1ccc(C)cc1	5%	21%
CCc1ccccc1NC(=O)Cn1c(=O)n(-c2ccc(C)c(C)c2)c(=O)c2oc3ccccc3c21	21%	9%
CCOc1ccc(NC(=O)C2=Cc3sc4c(c3CS2)CCCC4)cc1	-1%	-11%
CCOC(=O)CSC1=Nc2ccccc2C2=NC(CCC(=O)NCc3ccc(F)cc3)C(=O)N12 (stereo not given)	-20%	4%
C/C(=N/O)c1ccc2c(c1)CCC(=O)N2	15%	-16%[1.06 µM]
CCc1ccccc1NC(=O)Cn1nc2c3cc(F)ccc3n(Cc3cccc(C)c3)cc-2c1=O	-20%	0%
Continued.
SMILES	StopGo FLuc	2A Renilla
CCN(Cc1cc2ccc(C)cc2[nH]c1=O)C(=O)c1ccc(C(C)(C)C)cc1	1%	-8%
Cc1ccc(-c2nc(CNC(=O)Nc3ccc(Cl)cc3)c(C)o2)cc1	96%[activator]	-4%
N#Cc1nc(-c2ccc([N+](=O)[O-])cc2)oc1NCCc1ccccc1	29%	9%
Nc1cccc2ncccc12	0%	16%
CCN(C(=O)Cn1nc(-c2ccc(C)c(C)c2)ccc1=O)c1cccc(C)c1	-11%	-20%
Cc1cc(SCC(=O)NC23CC4CC(CC(C4)C2)C3)nc2ccccc12	-2%	-2%
CCCCCCOc1ccccc1/C=N/N=C(N)N	-8%	-15%
COc1ccc(NC(=O)c2ccc(COc3ccccc3OC)o2)cc1OC	-10%	-2%
Cc1cccc(-c2nc3cc(NC(=O)c4ccccc4F)ccc3o2)c1	150%[activator]	14%
CC(C)NC(=O)/C=C/c1ccc(F)c(Cl)c1	77%[activator]	-2%[1.06 µM]
O=S(=O)(NC1CCN(c2ncccn2)CC1)N1CCCCCC1	-13%	-12%
Cc1ccc(NC(=O)CN2C(=O)c3ccccc3Sc3ccc(C(=O)N4CCOCC4)cc32)c(Cl)c1	-24%	3%
CCN(CC)C(=O)Oc1ccc2c(=O)c(-c3ccccc3)c(C(F)(F)F)oc2c1	?	?
CN(Cc1ccccc1)C(=O)c1nc(-c2cccc3[nH]ccc23)no1	0%	127%[activator]
N#Cc1ccccc1COc1ccc(C=O)cc1	-9%	-6%
O=C(NC1CC1)C(Sc1ccc2c(c1)OCCCO2)c1ccc(F)cc1 (stereo not given)	2%	21%
Cc1ccc(C(CNC(=O)c2cc3ccccc3oc2=O)N2CCC(C)CC2)o1 (stereo not given)	-4%	-9%
CCn1nc(C(=O)NCC(C)(C)N2CCCCC2)c2ccccc2c1=O	-2%	-6%
NC(=O)C1(NC(=O)c2ccc(I)cc2)CCCCC1	5%	5%
CCOc1ccc2nc(N3CCCC(C(=O)Nc4cccc(Cl)c4C)C3)sc2c1 (stereo not given)	78%[activator]	1%
COc1ccc(NC(C)=O)cc1NC(=O)Cn1ccc2c(Cl)cccc21	-9%	-3%
CCOc1ccc(-c2nc(CS(=O)Cc3cc(C)ccc3C)cs2)cc1OC (stereo not given)	6%	8%[1.06 µM]
N#Cc1nc(-c2ccc(COc3ccccc3)o2)oc1N1CCN(c2ccccc2)CC1	-6%	-6%

Profiles from above. Order of values: StopGo FLuc	2A Renilla
CCn1nc(C(=O)NCC(C)(C)N2CCCCC2)c2ccccc2c1=O across the screens: -2%	-6%
CCOc1ccc(-c2nc(CS(=O)Cc3cc(C)ccc3C)cs2)cc1OC (stereo not given) across the screens: 6%	8%[1.06 µM]
O=C(NC1CC1)C(Sc1ccc2c(c1)OCCCO2)c1ccc(F)cc1 (stereo not given) across the screens: 2%	21%
Cc1ccc(C(CNC(=O)c2cc3ccccc3oc2=O)N2CCC(C)CC2)o1 (stereo not given) across the screens: -4%	-9%
